Tgondii IFNg – inhibitors of Toxoplasma gondii growth with IFN-gamma; Toxoplasma gondii growth in IFN-gamma-treated host cells; hits give low values; reference of the scale not given here; activity change, negative = inhibition, %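 (about 20 µM by stock and volumes)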; actives 3.8% (n = 69,000); AID 1259416;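 active means below -70%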;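 further: host cells are HeLa cells infected with Toxoplasma gondii; parasite growth read as luciferase light; one replicate is shown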
* = called active by the depositor; i = inactive; & = joins results of further samples. The list is partial (hit frequency here may not be typical).

SMILES | Tgondii IFNg
CCCN1CCC(N2CCC3(CC2)C(=O)N(CCCc2ccncc2)C(=O)N3CCC(C)C)CC1 | -44.6
COc1cc(-c2ccn[nH]2)ccc1NC(C)=O | -46.0
C/C(=C\c1ccccc1)CN1CCC2(CC1)CC2C(=O)NCc1ccccc1C(F)(F)F (stereo unspecified) | -18.6
CC(C)Cc1ncc2c(n1)CN(C(=O)C1=CCCC1)C2 | -17.2
Cc1noc(C)c1S(=O)(=O)N(C)C[C@@H]1OCCCC[C@H](C)Oc2ccc(N(C)C)cc2C(=O)N([C@H](C)CO)C[C@H]1C | i
COc1ccc(NC(C)C(=O)Nc2nc(C)cs2)c(OC)c1 (stereo unspecified) | 79.0
COCC(=O)N1CC2(C1)CN(Cc1cccc(F)c1)[C@H](CO)c1c2c2ccc(OC)cc2n1C | 52.2
CN(C)C(=O)c1ccc2c(c1)N(C)C(CC(=O)NCc1ccno1)CO2 (stereo unspecified) | -0.4
COC(=O)C[C@@H]1CC[C@@H]2[C@H](COC[C@H](O)CN2S(=O)(=O)c2cn(C)cn2)O1 | 39.3
COc1cc(CNc2c(C)c(C)nc3cc(-c4nccn4C)nn23)cc(OC)c1 | 31.6
COc1ccc(CN(C)CC2CCCCO2)c(OC)c1OC (stereo unspecified) | 3.9
O=C(CSC1=NCCCCC1)c1ccccc1 | -27.1
CN(C)C(=O)C[C@@H]1C=C[C@@H](NC(=O)c2ccc(F)cc2)[C@@H](CO)O1 | -2.6
CSc1ncc(CN2CCCN(c3ccccc3C)CC2)cn1 | 9.8
CC(C)(C)C(=O)Nc1ccc(S(N)(=O)=O)cc1 | -46.8
Cc1cc(OCC(=O)n2cnnc2N)cc(C)c1Cl | 14.4
CC(C)c1cc(C2CCN(C(=O)Cc3noc4ccccc34)CC2)[nH]n1 | -12.9
FC(F)(F)c1ccc2cccc(C(F)(F)F)c2n1 | -13.5
COc1ccc(-c2nnc(-c3nc(NCc4ccc(C)cc4)c4ccccc4n3)o2)cc1 | -3.6
CC(C)(O)C#Cc1ccc(C(=O)N2CCn3cncc3C2)cc1 | 6.0

Gathered by group: the entries above containing fluorine (four)
SMILES | Tgondii IFNg
C/C(=C\c1ccccc1)CN1CCC2(CC1)CC2C(=O)NCc1ccccc1C(F)(F)F (stereo unspecified) | -18.6
COCC(=O)N1CC2(C1)CN(Cc1cccc(F)c1)[C@H](CO)c1c2c2ccc(OC)cc2n1C | 52.2
CN(C)C(=O)C[C@@H]1C=C[C@@H](NC(=O)c2ccc(F)cc2)[C@@H](CO)O1 | -2.6
FC(F)(F)c1ccc2cccc(C(F)(F)F)c2n1 | -13.5

More results:
SMILES | Tgondii IFNg
COCC1CC2OCCN(C(=O)NCc3cccnc3)C2C1 (stereo unspecified) | 60.9
O=C1CCCN1CC1CCN(C(=O)c2ccc(N3CC=CCC3)nc2)CC1 | 1.2
CN(C)Cc1nn(C)c2c1CN(S(=O)(=O)c1ccccc1F)C2 | 3.5
CCNC(=O)N1CCN2C(=O)CN(C)C(=O)C2C1 (stereo unspecified) | 9.1
CCc1cc(CN(C)C(=O)CN2C(=O)NC(=O)C2(C)C)on1 | -0.8
O=P(O)(O)OC[C@H]1OC(O)[C@H](O)[C@@H](O)[C@@H]1O (stereo partly specified) | 10.7
CC1CNC(=O)CCN1C(=O)c1cn2cc(Cl)ccc2n1 (stereo unspecified) | -30.8
Cc1ccc(CN2CCC3(CCCN(c4ccc(C)nn4)C3)C2)cc1 (stereo unspecified) | -11.2
CSc1cc(-c2ccc(Cl)cc2)nc(-c2ccc(Cl)cc2)c1 | -31.5
CCc1nc(C)sc1CNC(=O)c1c(O)cccc1O | 4.2
O=C(NCCC1CN(Cc2cccnc2)CCO1)c1ccsc1 (stereo unspecified) | -6.2
Cc1ccc(N2C(=O)CC(c3ccccc3)CC2=O)cc1Cl | -35.1
Cc1ccc2c(c1)CCCN2C(=O)CN(C)C(C)c1ccon1 (stereo unspecified) | 41.1
C[C@H](CO)N1C[C@H](C)[C@H](CN(C)S(=O)(=O)c2cccc(F)c2)Oc2ncc(C#CC3(O)CCCC3)cc2C1=O | 60.4
c1csc(-c2[nH]ncc2CN2CCC3(CC2)Nc2ccccc2C2=NCCN23)c1 | 5.8
COc1cc(N2C[C@H]3COC[C@@]3(COc3ccccn3)C2)ncn1 | -60.3
COc1ccc2c3c([nH]c2c1)C1(NCC3)C(=O)Nc2ccc(Br)cc21 (stereo unspecified) | 147.4
CCCCc1n[nH]c(=O)n1Cc1cccc(C)c1 | -9.3
CSc1c(C#N)c(-c2cccs2)nn1CNC(=O)Nc1ccccc1C(F)(F)F | 71.5
Cc1cc(C)n(CCCN(C)C(=O)c2cnn3ccn(C)c23)n1 | 10.7

Part of the list above, as labelled records.
> Cc1ccc(N2C(=O)CC(c3ccccc3)CC2=O)cc1Cl
  Tgondii IFNg = -35.1
> CSc1c(C#N)c(-c2cccs2)nn1CNC(=O)Nc1ccccc1C(F)(F)F
  Tgondii IFNg = 71.5
> COc1cc(N2C[C@H]3COC[C@@]3(COc3ccccn3)C2)ncn1
  Tgondii IFNg = -60.3

4 compounds out of the list, ordered by formula weight, largest number first:
SMILES | Tgondii IFNg
O=C1CCCN1CC1CCN(C(=O)c2ccc(N3CC=CCC3)nc2)CC1 | 1.2
O=C(NCCC1CN(Cc2cccnc2)CCO1)c1ccsc1 (stereo unspecified) | -6.2
CCc1cc(CN(C)C(=O)CN2C(=O)NC(=O)C2(C)C)on1 | -0.8
CCNC(=O)N1CCN2C(=O)CN(C)C(=O)C2C1 (stereo unspecified) | 9.1

Additional records.
SMILES | Tgondii IFNg
O=C(c1ccncc1)N1C[C@H]2CCc3c(C(F)(F)F)n[nH]c3[C@H]2C1 | -4.1
COCCN1C[C@H]2[C@@H](OC)CCN(S(=O)(=O)c3cn(C)cn3)[C@H]2C1 | 0.2
Cc1cc(C)n(C)c(=O)c1C(=O)N1CCC(c2cc3ncccc3cn2)CC1 | 88.9
NC(=O)c1cc(-c2ccccc2)sc1NC(=O)c1cccs1 | -82.9*
CCn1c(CC2CCN(C/C=C/c3ccc(F)cc3)CC2)nn(C)c1=O | 18.6
CCc1nnc(N2C(=N)SCC2=O)s1 | -1.2
O=S(=O)(c1ccc(F)cc1)N1CCCCN2[C@H](CO)[C@H](c3ccc(-c4cncnc4)cc3)[C@@H]2C1 | -4.8
CC(Cn1cc(Cl)cn1)c1cc(=O)[nH]c(NCC2COc3ccccc3O2)n1 (stereo unspecified) | -4.4
Cc1nc(N)cc(CC2CCN(CCS(=O)(=O)c3ccccc3)CC2)n1 | -11.4
CCc1cccc(NC(=O)Cn2ncc3c(N4CCOCC4)ncnc32)c1 | -12.9
Cc1cccc(S(=O)(=O)N2C[C@H]3C[C@H](C(=O)NCC4CC4)[C@@H](C2)O3)c1 | -2.0
CS(=O)(=O)N1CCc2onc(CNc3cccnc3)c2C1 | 3.9
Cc1oc(-c2ccc(NC(=O)c3ccco3)cc2)nc1Cn1cccn1 | 28.2
CCCCNCC1COc2ccccc2O1 (stereo unspecified) | 6.7
C[C@@H]1CN([C@H](C)CO)C(=O)c2cc(NC(=O)C3CCCCC3)ccc2O[C@H]1CN(C)Cc1ccc2c(c1)OCO2 | -49.1
CC=Cc1ccc2n(c1=O)C[C@H]1[C@H](CO)[C@@H](C(=O)NCc3ccccc3Cl)N(S(C)(=O)=O)[C@@H]21 (mixture of isomers) | -9.8
CN1CCN(C(c2ccccc2)c2ccc(Cl)cc2)CC1 (stereo unspecified) | -28.1&-5.1
COc1ccc(C(=O)Nc2ccc3c(c2)C(=O)N(C)[C@H]2CC[C@H](CC(=O)NCC4CC4)O[C@H]2CO3)cc1 | -45.0
CC(C)c1cc(NC(=O)c2cccc(CN3CC=CCC3)c2)n(C)n1 | 6.2
COCC(=O)Nc1ccc2c(c1)OC[C@@H](C)N(C(=O)Nc1ccccc1F)C[C@@H](C)[C@H](OC)CN(C)C2=O | 29.4
C[C@@H]1CCCCO[C@@H](CN(C)Cc2ccc(Cl)c(Cl)c2)[C@@H](C)CN([C@H](C)CO)C(=O)c2cc(NC(=O)c3ccncc3)ccc2O1 | -68.4
CC(CNc1ccc(-c2nccn2C)nn1)Oc1cccnc1 (stereo unspecified) | 10.2
CN(C)C(=O)N1CCCC2(CCN(S(=O)(=O)c3cn(C)cn3)C2)C1 (stereo unspecified) | i
O=C(c1ccccc1Cl)N1CCC2(CC1)Nc1ccc(Cl)cc1-n1cccc12 | 7.5
O=S(=O)(c1ccccc1)c1nc(-c2ccc(Cl)cc2Cl)oc1N1CCOCC1 | -38.7
COc1ccc2c3c([nH]c2c1)[C@H](CO)N(C(=O)CN(C)C)CC31CN(CC2CC2)C1 | -25.1
COc1ccc2oc(C(=O)Nc3ccc(CN4C(=O)NC(C)(C)C4=O)cc3)cc2c1 | 165.7
Cc1oc(-c2ccccc2)nc1Cc1noc(-c2ccncc2)n1 | 7.0
COc1ccccc1-c1ccc([C@@H]2[C@H](CO)N(CC3CC3)C23CN(S(C)(=O)=O)C3)cc1 | -44.5
Cc1cccc(NC(=O)C2CCN(S(=O)(=O)c3ccc4[nH]c(=O)ccc4c3)CC2)c1 | -16.6
C=CCN(Cc1ccccc1C)C(=O)c1cccc2cnccc12 | -5.4
CN1C(=O)c2cc(NS(=O)(=O)c3cccc(F)c3)ccc2OC[C@H]2O[C@@H](CC(=O)N3CCc4ccccc4C3)CC[C@@H]21 | -22.2
CN1CCC2(c3ccccc3)CCN(S(C)(=O)=O)CC12 (stereo unspecified) | 27.3
Cn1cnc(S(=O)(=O)N2CCC(c3csc(N)n3)CC2)c1 | 5.2
Cc1cc(C(=O)N2C[C@@H]3OCCN(CCN4CCCC4)[C@H]3C2)c(C)o1 | -1.0
O=C(O)C(O)Cc1ccc(O)c(O)c1 (stereo unspecified) | 14.0
O=C(NC1CCCC1)N1CCCCN2[C@H](CO)[C@H](c3ccc(-c4cccnc4)cc3)[C@H]2C1 | -37.7
O=C(O)c1cccc(CC2CCN(Cc3cnc(-c4ccccn4)nc3)C2)c1 (stereo unspecified) | -5.5
CN1CCN(C(=O)C[C@@H]2CC[C@H]3[C@@H](COC[C@@H](O)CN3C(=O)c3ccccc3F)O2)CC1 | 8.3
COc1ccc2cccc(CCNC(C)=O)c2c1 | 5.9
CCO[C@@H]1CO[C@@]2(CCCN(S(=O)(=O)N(C)C)C2)C1 | -1.5
CSc1nccc(NCC2CNCCOC2)n1 (stereo unspecified) | 4.6
O=C(c1cccc2[nH]ccc12)N1CCCC1c1nc(-c2cccc(Cl)c2)no1 (stereo unspecified) | -23.4
O=C(Nc1ccc2c(c1)OCCO2)c1cccnc1Oc1ccc(Cl)cc1 | -10.8
C[C@H]1CN([C@@H](C)CO)C(=O)c2cccc(NC(=O)c3cnccn3)c2O[C@@H]1CN(C)C(=O)NC1CCCCC1 | -18.8
CO[C@@H](CN(C)Cc1ccc(-c2ccccn2)cc1)[C@@H](C)CN(C(=O)Nc1ccc(F)cc1)[C@H](C)CO | 15.0
COCCN1C(=O)CCc2cc(NS(=O)(=O)c3ccc(C(C)C)cc3)ccc21 | -60.4
CCn1cc2c(n1)C(COC)CN(Cc1ccoc1)C2 (stereo unspecified) | -21.4
Cc1nn(C)c(C)c1NC(=O)CN1CCC(O)(c2ccccc2F)CC1 | -13.8
O=C(Nc1cccnc1)C1CC(c2cccc(Br)c2)=NO1 (stereo unspecified) | -13.5
Other compounds
SMILES | Tgondii IFNg
COc1ccc(C(=O)N2CCC3(CC2)NC(=O)c2cc(Cl)ccc2N3C)c(OC)c1 | 18.1
CC(C)N1CCC2(CC1)CC(COCC1CC1)N(Cc1cccnc1)C2 (stereo unspecified) | -5.9
CN=C(N)NCCC[C@H](N)C(=O)O | 20.2
Cc1ccc(C)c(NC(=O)c2nnn(Cc3nc(-c4ccccc4C)oc3C)c2C)c1 | -22.7
CCOc1ccccc1-c1noc(-c2c(O)c3ccc(F)cc3[nH]c2=O)n1 | 22.4
CCc1cc(=O)[nH]c(C2CCCN2C(=O)c2cc(OC)c(OC)c(OC)c2)n1 (stereo unspecified) | -26.7
Cc1ccc(C2c3[nH]c4ccccc4c3CCN2C(=O)C2CCC2)cc1 (stereo unspecified) | -45.2
COc1ccc(C(=O)NCCc2sc(-c3ccc(F)cc3)nc2C)c(OC)c1 | -86.9*
Cc1nc(-c2ccccn2)nc(SCC(=O)N2CCOCC2)c1Cl | -24.1
CCOc1cc2c(cc1CN1CCCC3(C1)OCCc1cnc(C)nc13)OCO2 (stereo unspecified) | 14.0
Cc1cc(NC(=O)CC(C)(C)CC(=O)O)n(C)n1 | -9.4
CN1CCCC1CCNC(=O)CC(=O)Nc1ccc(F)c(Cl)c1 (stereo unspecified) | -47.0
COc1ccc(CNC(=O)c2cc3c(c(-c4cccc(-c5ccc(C#N)cc5)c4)n2)[C@@H](CCO)N([S@](=O)C(C)(C)C)C3)cc1 | -50.7
COc1cccc(CNC(=O)N2CCC3(CC2)Nc2cc(OC)ccc2-n2cccc23)c1 | 379.9
CN1CCC2(CC1)N=C(c1ccccc1O)CC(c1ccccc1O)N2 (stereo unspecified) | 31.7
Cc1cc(COC(=O)Nc2ccc(Cl)cc2)no1 | -29.0
Cc1cc(N2CCCN(Cc3cccc(C)n3)CC2)ccn1 | -3.2
COc1ccc2c3c(n(C)c2c1)[C@@H](CO)N(C(=O)C1CC1)CC31CN(Cc2ccccc2OC)C1 | -5.2
c1cnc(-n2cncn2)c(CNc2cc(N3CCOCC3)ncn2)c1 | -2.9
O=c1[nH]nc(CCn2ccnc2C2CCOC2)[nH]1 (stereo unspecified) | -3.1
c1ccc(-c2nc3c(c(N4CCCC(Cn5ccnc5)C4)n2)CCNC3)cc1 (stereo unspecified) | -41.2
O=C(NCc1ccccc1)c1c(O)c2cccnc2n(-c2cccc(F)c2)c1=O | 52.3

Assay outcomes from PubChem.
